Rango-impB inh = prevents formation of the Rango-importin beta complex | Q14974 | Rango CFP/YFP FRET sensor + importin beta, 45 min | Potency, µM (highest dose often 92.2 µM), for the others: at the top dose inhibition of complex formation | 340,000 tested, 0.031% active; active = rising FRET ratio curve, often small or poorly fitted; inconclusive = mostly compound fluorescence or quenching in the first reads; inactive = flat curves in all reads;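 also: potency is read from the fitted curve at half-maximal effect; 0% = DMSO wells and 100% = buffer wells lacking importin beta; nearly all actives have a fitted effect of over 15% in size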
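Inhibition scored from the CFP 486 nm/YFP 530 nm FRET ratio 45 min after adding 0.125 microM importin beta to 50 nM Rango biosensor preincubated 5 min with compound (room temperature, PBS with DTT, Tween-20, BSA). No-importin wells as positive control.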
GLA inh pH 4.5 = inhibitors of human alpha-galactosidase A at pH 4.5. purified enzyme, 4-MU-alpha-Gal fluorescence, pH 4.5. P06280. activity change, negative = inhibition, % at 105 µM. 230,000 tested, under 10 active. AID 1467; inconclusive = small, poorly fitted or top-dose-only inhibition, or a rising curve; inactive = flat fitted curve, though single readings scatter; no compound was filed as active;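 also: 0% = full activity with enzyme and -100% = basal without enzyme; dose as in the result columns while the protocol names 77 µM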
Target sequence (P06280 whole entry, looked up): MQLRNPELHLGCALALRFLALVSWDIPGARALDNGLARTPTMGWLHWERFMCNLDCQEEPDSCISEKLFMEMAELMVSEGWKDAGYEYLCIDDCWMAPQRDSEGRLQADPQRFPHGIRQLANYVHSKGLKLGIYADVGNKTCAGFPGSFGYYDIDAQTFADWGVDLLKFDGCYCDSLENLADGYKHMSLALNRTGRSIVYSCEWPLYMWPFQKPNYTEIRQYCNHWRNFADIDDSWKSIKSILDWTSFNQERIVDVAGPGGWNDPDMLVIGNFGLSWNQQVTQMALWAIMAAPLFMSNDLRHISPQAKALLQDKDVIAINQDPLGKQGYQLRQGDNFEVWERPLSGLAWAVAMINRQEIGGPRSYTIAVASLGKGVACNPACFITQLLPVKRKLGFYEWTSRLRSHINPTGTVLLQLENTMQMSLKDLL
miR-21 FLuc = miR-21 reporter, rising signal. Potency, µM (titrated, usually from 38.3 µM), inactives show at the highest dose reporter change, positive = more light. 340,000 tested, under 10 active. HeLa miR-21 FLuc reporter, luciferase, 48 h; active = well fitted rising curve with a large enough effect; inconclusive = small, poorly fitted or top-dose-only effect; inactive = no such curve, though single readings can be large or run the other way;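 also: % of control where 0% means no effect; miR-21 action dims this reporter so a rising signal means less miR-21 action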
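Luminescence from a firefly luciferase reporter carrying a miR-21 binding site downstream, stably expressed under a CMV promoter in HeLa cells that make miR-21 endogenously, reports miRNA modulation after 48 h compound exposure up to approximately 40uM final.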
Rango dissoc inh = prevents RanGTP from dissociating the Rango-importin beta complex; Biochemical FRET Rango-importin beta, RanGTP-induced dissociation; Potency, µM (series often up to 46.1 µM), for inactives: at the highest dose activity change, negative = inhibition; 340,000 tested, 0.071% active; AID 540253; active means falling FRET ratio curve, often poorly fitted, with flat reads before Ran was added; inconclusive means other falling curves, or compound fluorescence or quenching; inactive means flat or rising ratio curve;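 also: potency is read from the fitted curve at half-maximal effect; % of control where 0% means no effect; nearly all actives have a fitted effect of over 45% in size; -100% = wells without RanGTP and RCC1; the record marks most hits as doubtful in a second field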
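Quantitative HTS using a FRET biosensor: 0.1 uM Rango, 0.25 uM importin beta, 0.6 uM Ran, 2 mM GTP, 0.2 uM RCC1 final, PBS with DTT, Tween-20 and BSA. Post-read taken 45 min after Ran addition.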
* = called active by the depositor; ? = inconclusive; · = no result given; & = joins results of further samples; [ ] = remark or other dose. This is a subset, so the mix of outcomes need not match the whole.

Rango-impB inh	GLA inh pH 4.5	miR-21 FLuc	Rango dissoc inh	mol
1.4%	·	-6%	-3%	CC(C)Oc1ccc(C(=O)Nc2c3c(nn2C(C)(C)C)CS(=O)(=O)C3)cc1
-0.9%	·	-7%	-3%	O=C1N=NC(=O)N1c1ccccc1
-5.3%	·	0%	-10%	Cc1cc(S(=O)(=O)NCc2ccc3c(c2)OCO3)ccc1F
2.4%	·	0%	-28%	COc1ccc(-c2cc(=O)oc3cc(OCC(=O)NCCN4CCOCC4)ccc23)cc1
9.5%	2	2%&0%	7%	Cc1ccc(NC(=O)C2CCCN2S(=O)(=O)c2ccc3c(c2)n(C)c(=O)c(=O)n3C)cc1 (stereo unspecified)
0.5%	-5	-5%	-1%	S=c1[nH]nc(CSCc2ccccc2Cl)n1C1CCCCC1
0.8%	·	-3%	-6%	CC(C)Cc1cc(C(=O)N2CCCC(C(=O)c3cc(F)ccc3F)C2)no1 (stereo unspecified)
-0.9%	·	14%	-13%	O=c1oc2ccccc2c(NC2CCCCC2)c1NS(=O)(=O)c1ccc(Cl)cc1
-0.3%	·	3%	7%	COc1ccc(C(CCN(Cc2ccc(OC)c(OC)c2)C(C)=O)C(C)C)cc1 (stereo unspecified)
4.2%	2	1%	0%	CCOc1ccc(CCNC(=O)CN2CCN(Cc3ccc(F)cc3)C2=O)cc1OCC
1.1%	7	-13%	8%	CC(C)C1Oc2ccccc2N(CC(=O)N(Cc2ccncc2)Cc2ccco2)C1=O (stereo unspecified)
-0.4%	·	·	-1%	COc1ccc(CCNC(=O)C(=O)NCC2CCCN2S(=O)(=O)c2cccs2)cc1 (stereo unspecified)
3.5%	·	·	1%	COc1ccc(S(=O)(=O)N2CCCCCC2)cc1C(=O)N1CCCC(C(F)(F)F)C1 (stereo unspecified)
2.1%	·	·	-11%	CCCCn1nc(C(=O)Nc2ccc(-n3cnnn3)cc2)c2ccccc2c1=O
0.1%	-8	-3%	-9%	COc1ccccc1NC(=O)Cn1cnc2sc(C)c(S(=O)(=O)N3CCCCC3)c2c1=O
-0.5%	·	1%	-17%	COc1cccc(NC(=O)CCN2CCOCC2)c1
-0.6%	8	1%	-8%	CC(C)(C)NC(=O)NCC1CCCC1NC(=O)NC(C)(C)C (stereo unspecified)
-3.4%	1	0%	-13%	CC1CCCC(NC(=O)COC(=O)c2c[nH]c(=O)[nH]c2=O)C1C (stereo unspecified)
-0.4%	-2	0%	-5%	O=C1c2cccc3cccc(c23)C(=O)N1/N=C/c1ccc(O)cc1O
?	-13	-21%	-7%	CCOC(=O)c1c(NC(=O)c2ccc(S(=O)(=O)N3CCOCC3)cc2)sc2c1CCN(C)C2
0.1%	0	-54%	0%	C=CCNC(=O)c1cc(-c2ccc(Br)cc2)on1
-3.1%	·	2%	11%	CCOC(=O)C1(Cc2cccc(OC)c2)CCCN(S(=O)(=O)N(C)C)C1 (stereo unspecified)
5.7%	·	6%	7%	CCOc1ccc(N(CC(=O)Nc2ccccc2OC)S(C)(=O)=O)cc1
-1.7%	·	-49%	-6%	COc1ccc(OCc2cc(C(=O)N3CCCC3)no2)c2ccccc12
-3.0%	9	-1%	0%	COC(=O)Cn1c(=O)c(C)nc2ccccc21
1.9%	·	20%	-9%	O=C(NCc1cccc(F)c1)c1cccc(OC2CCN(C(=O)C3CC3)CC2)c1
-3.0%	0	-3%	-3%	CN1CCNC(=O)C1CC(=O)NCCC1=CCCCC1 (stereo unspecified)
6.1%	9	0%	29%	Cc1ccc(NC(=O)CSc2nc3ccccc3c(=O)n2CCCC(=O)NCCCN2CCOCC2)cc1C
-1.0%	2	1%	-18%	COc1ccc(NC(=O)CC23CC4CC(C2)CC(n2nnc(C)n2)(C4)C3)cc1
1.0%	·	·	-14%	COC(=O)c1cc(NC(=O)COC(=O)CCc2nc3ccccc3c(=O)[nH]2)cc(C(=O)OC)c1
1.4%	1	-1%	33%	O=C1CC(SCCc2nc3ccccc3[nH]2)C(=O)N1c1ccc(F)cc1 (stereo unspecified)
2.7%	·	-6%	1%	CCc1cccc(NC(=O)C2CCCN(c3cnccn3)C2)c1 (stereo unspecified)
-3.5%	·	-11%	-8%	COc1ccccc1NC(=O)C(=O)N/N=C(\C)CC(=O)Nc1ccccc1C(F)(F)F
5.1%	·	-6%	-2%	Cc1ccc(NC(=O)CN2CCN(Cc3ccccc3)CC2)c(Br)c1
-0.6%	·	·	-2%	O=C(CN1C(=O)NC2(CCCC2)C1=O)N1CCN(S(=O)(=O)c2ccc(Cl)c(C(F)(F)F)c2)CC1
6.5%	5	3%	1%	CCOCC(=O)Nc1nnc(C)s1
-3.0%	-8	2%	6%	NS(=O)(=O)c1ccc(NC(=S)NCc2ccc(Cl)cc2)cc1
-4.1%	-2	-9%	3%	CSC(=Nc1ccc(Cl)cc1)N[n+]1ccccc1
-0.3%	-21	-1%	0%	COc1ccc2nc(COC(=O)c3cccc([N+](=O)[O-])c3)c(C(C)=O)[n+]([O-])c2c1
-0.6%	8	9%	7%	Nc1nc(Cl)c(C=O)c(N2CCCCC2)n1

The closing 2 entries of the part above come first, to join the parts.
Rango-impB inh	GLA inh pH 4.5	miR-21 FLuc	Rango dissoc inh	mol
-0.3%	-21	-1%	0%	COc1ccc2nc(COC(=O)c3cccc([N+](=O)[O-])c3)c(C(C)=O)[n+]([O-])c2c1
-0.6%	8	9%	7%	Nc1nc(Cl)c(C=O)c(N2CCCCC2)n1
5.3%	·	·	?	Cc1ccc(NC(=O)CNc2cccc(Br)c2)cc1S(=O)(=O)N1CCOCC1
?	4	3%	?	COc1cc(C2C(C#N)=C(N)Oc3cc(O)ccc32)cc2c1OCO2 (stereo unspecified)
-0.5%	·	·	7%	Cc1cccc(C)c1OCc1cc(C(=O)N2CCC(C3CCCCC3)C2)no1 (stereo unspecified)
0.1%	9	12%	1%	O=C(/C=C/c1ccc(OCCCF)cc1)Nc1ccnc(-c2cccnc2)n1
0.3%	-4	-10%	-7%	Cc1ccc(NC(=S)N2CCCC(c3ccccc3)=N2)cc1
0.1%	-2	19%	27%	N/C(=N\OC(=O)c1ccccc1Cl)c1ccncc1
2.0%	·	-13%	8%	Cc1ccccc1C(=O)Nc1nnc(S(=O)(=O)N(C)Cc2ccco2)s1
4.4%	-1	-3%	-12%	CCCS(=O)(=O)N1CCCC(C(=O)NCc2cccnc2)C1 (stereo unspecified)
-0.6%	·	-2%	1%	CC(NC(=O)CS(=O)(=O)c1ccccc1)c1ccccc1 (stereo unspecified)
5.8%	-7	-1%	9%	CC(C)CCn1nnnc1CN1CCN(c2ccccc2)CC1
-3.5%	14	-30%	5%	O=C(NC1CCCC1)c1ccc(CSCc2ccccc2F)o1
-0.8%	-19	-3%	-5%	CCCCN(C)Cc1c(C)[nH]c2ccccc2c1=O
2.2%	-3	-7%	-13%	CC1=Nc2cc(C(=O)O)ccc2Sc2ccc(Br)cc21
?	-5	-10%	-19%	CC(C)c1cc(C(N)=O)c(NC(=O)C2CCC2)s1
-0.2%	·	0%	-1%	CCCCCCCC(=O)Nc1cc(C(=O)NCCC)ccc1N1CCC2(CC1)CC(c1ccccc1)=NO2
1.5%	-4	-14%	9%	CCOc1ccc(C2/C(=C(\O)c3ccc(OC)c(OC)c3)C(=O)C(=O)N2c2cc(C)on2)cc1OC (stereo unspecified)
0.1%	-3	0%	21%	CCOCCN1CCN(C(=O)CN2CCCC2=O)CC1
0.9%	5[21.1 µM]	-1%	?	O=C(NCc1ccc2c(c1)OCO2)c1ccc(S(=O)(=O)C(F)F)cc1
1.1%	·	·	-10%	O=C(Nc1ccc(F)cc1Cl)C1=COCCO1
3.6%	-10	0%	-1%	CN1CCN(CCC(=O)N/N=C/c2cc([N+](=O)[O-])ccc2O)CC1
0.8%	1	-2%	3%	Cn1cc(CC(=O)NCCCN2CCCC2=O)c2ccccc21
2.2%	-1	2%	1%	CCC(C)(C)NC(=O)C(c1ccccc1)N(Cc1cccnc1)C(=O)c1csnn1 (stereo unspecified)
4.4%	-2	-13%	3%	COCCNC(=O)c1ccc2c(c1)nc(C)n2-c1cccc(F)c1
4.7%	5	-26%	-9%	O=C(c1ccco1)N1CCN(c2ncccn2)CC1
0.4%	3	-4%	-8%	CCCn1cc(S(=O)(=O)CC(=O)Nc2ccc(OC)cc2OC)c2ccccc21
5.6%	·	3%	6%	CCOc1ccccc1N1CC(C(=O)N(C)Cc2cccnc2)CC1=O (stereo unspecified)
2.6%	0	1%	12%	CC1CCc2cc(F)ccc2N1C(=O)C12CCC(C)(C(=O)O1)C2(C)C (stereo unspecified)
4.7%	-10	-4%	0%	COc1ccc(OC)c(-c2cc(C(=O)Nc3c(C)nn(Cc4ccccc4Cl)c3C)no2)c1
-1.8%	-5	-16%	-10%	COc1cc(CCN2C(=O)c3cccc4cccc(c34)C2=O)c(S(=O)(=O)NCCO)cc1OC
-0.9%	·	·	-12%	Cc1ccccc1Nc1nc(N)nc(COC(=O)c2c(C)noc2C)n1
-1.8%	4	-59%	3%	Cc1ccc(-n2ncc(Cl)c2C(=O)NC2CC2)cc1
0.7%	3	-7%	-3%	CCN1C(=O)/C(=C/c2cccs2)S/C1=N\S(=O)(=O)c1ccc(C)cc1
0.4%	·	·	15%	O=[N+]([O-])c1cccc(C=NNc2ccccc2)c1
-0.2%	-11	-2%	0%	Cn1c(=O)c2c(SC3CCCC3)nc(C3CC3)nc2n(C)c1=O
0.4%	·	·	0%	O=C(CSc1nnc2ccc(-c3cccnc3)nn12)Nc1cccc(F)c1
1.7%	-3	5%	-11%	c1ccc2c(c1)nc(N1CCCCC1)c1ccccc12
-4.5%	1	-5%	37%	Cc1ccc(CC(=O)N2CCC(c3nc4c(nnn4Cc4ccccc4)c(=O)[nH]3)CC2)cc1
-1.0%	·	0%	-9%	COc1ccc(-n2nc3c(c2NC(=O)CBr)CSC3)cc1
?	4	-44%	11%	O=C(N/N=C/c1ccccc1C(F)(F)F)c1ccc(O)cc1
-1.0%	7	-3%	-1%	CCCNC(=O)Cc1c(O)c2ccccc2[nH]c1=O

Compound profiles, from the list above. Order of screens: Rango-impB inh | GLA inh pH 4.5 | miR-21 FLuc | Rango dissoc inh
Listed for COc1cc(CCN2C(=O)c3cccc4cccc(c34)C2=O)c(S(=O)(=O)NCCO)cc1OC = -1.8% | -5 | -16% | -10%
Listed for Cn1c(=O)c2c(SC3CCCC3)nc(C3CC3)nc2n(C)c1=O = -0.2% | -11 | -2% | 0%

(listing goes on)
Rango-impB inh	GLA inh pH 4.5	miR-21 FLuc	Rango dissoc inh	mol
0.1%	-27	-14%	2%	COc1ccc(C(C[N+](=O)[O-])C2(c3ccc(OC)c(OC)c3)C(=O)c3ccccc3C2=O)cc1 (stereo unspecified)
?	-9	-53%	-17%	CC(C)c1ccc(Nc2nnc(SCC(=O)c3nnc(-c4ccccc4)o3)s2)cc1
0.5%	-2	-6%	0%	CCCCCC1CCC(C(=O)O)CC1 (stereo unspecified)
1.4%	·	·	4%	Cc1ccc(N2C(=O)CCC2=O)c(C)c1
1.0%	·	0%	-11%	O=C(OCc1c(F)cccc1Cl)c1cnc(Cl)c(Cl)c1
4.6%	·	·	2%	CCNC1CCC(Nc2ccnc3cc(Cl)ccc23)CC1 (stereo unspecified)

Some of the entries above in a different format:
compound	Rango-impB inh	GLA inh pH 4.5	miR-21 FLuc	Rango dissoc inh
Cc1ccc(N2C(=O)CCC2=O)c(C)c1	1.4%	·	·	4%
O=C(OCc1c(F)cccc1Cl)c1cnc(Cl)c(Cl)c1	1.0%	·	0%	-11%
CCNC1CCC(Nc2ccnc3cc(Cl)ccc23)CC1 (stereo unspecified)	4.6%	·	·	2%

Assay outcomes from PubChem BioAssay.
